Assay outcomes (PubChem)
DT40 TDP1 CPT: growth inhibition of DT40 Tdp1-/-;hTDP1 cells with camptothecin (screen for TDP1 inhibitors); Potency, µM (doses to about 46.2 µM), for the others: at the top dose activity change, negative = growth inhibition, actives largely listed as inhibitors; chicken DT40 Tdp1-/-;hTDP1 cells + 20 nM CPT, ATP luminescence, 48 h; AID 686979; 420,000 compounds, 12% hits; further: nearly all actives have a fitted effect of over 55% in size
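Chicken DT40 Tdp1-/- cells complemented with human TDP1, 400 cells/well, exposed to compounds plus 20 nM camptothecin for at least 48 h at 37 C; viability read as ATP content by CellTiter-Glo luminescence.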
GCN5L2 inh: blocks human GCN5L2 histone acetyltransferase; AID 504327; Q92830; 390,000 compounds, 0.21% hits; Potency, µM (top dose mostly 58.9 µM), for inactives: at the top dose activity change, negative = inhibition, hits mostly inhibitors; GCN5L2 HAT assay, ThioGlo1 CoA-SH fluorescence
Target sequence (Q92830 whole entry, looked up): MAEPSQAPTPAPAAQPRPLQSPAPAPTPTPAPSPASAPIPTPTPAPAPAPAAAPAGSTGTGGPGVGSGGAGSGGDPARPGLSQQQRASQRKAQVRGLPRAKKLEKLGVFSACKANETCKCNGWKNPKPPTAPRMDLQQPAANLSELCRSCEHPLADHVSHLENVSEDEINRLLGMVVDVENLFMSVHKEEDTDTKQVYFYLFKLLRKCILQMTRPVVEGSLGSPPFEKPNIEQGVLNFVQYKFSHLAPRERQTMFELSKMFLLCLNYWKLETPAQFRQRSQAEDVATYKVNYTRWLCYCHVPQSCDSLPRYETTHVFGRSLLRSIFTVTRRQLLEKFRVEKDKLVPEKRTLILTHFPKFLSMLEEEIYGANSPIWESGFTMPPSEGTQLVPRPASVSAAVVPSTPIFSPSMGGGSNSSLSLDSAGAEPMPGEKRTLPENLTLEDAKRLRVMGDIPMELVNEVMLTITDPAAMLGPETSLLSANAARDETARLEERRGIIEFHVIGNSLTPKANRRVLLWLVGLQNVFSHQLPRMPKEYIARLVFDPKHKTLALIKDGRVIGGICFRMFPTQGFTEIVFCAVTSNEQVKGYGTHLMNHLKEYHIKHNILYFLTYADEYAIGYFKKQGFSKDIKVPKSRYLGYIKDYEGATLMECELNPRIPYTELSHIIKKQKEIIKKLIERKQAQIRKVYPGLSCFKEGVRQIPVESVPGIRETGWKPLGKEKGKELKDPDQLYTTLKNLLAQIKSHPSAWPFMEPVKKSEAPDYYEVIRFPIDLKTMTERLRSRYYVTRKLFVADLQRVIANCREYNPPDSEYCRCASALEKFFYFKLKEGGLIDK
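Compounds, pin-transferred from DMSO stocks, meet 20nM GCN5L2 for 15 min before the reaction begins with H3(1-25) peptide (75uM) and acetyl-CoA (70uM). Thiol-reactive ThioGlo1 reports CoA release over 20 min at room temperature.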
Active calls of the source: *; ? = inconclusive; & = joins results of further samples. The call rests on the fitted dose curve; in most records, active means well fitted curve in the direction sought with a large enough effect; inconclusive means small, poorly fitted or top-dose-only effect, or another doubt; inactive means no such curve, though single readings can be large; an effect the other way counts as inactive or inconclusive. On the % scale 0 is the no-effect control and ±100 the full control effect; potency means the concentration at half of the fitted maximal effect. These rows are one share of the data, and most or all hits are left out here.

SMILES | DT40 TDP1 CPT | GCN5L2 inh
CCOc1ccccc1NC(=O)c1cnc(N2CCOCC2)c2ccccc12 | 21µM* | -10%
CC(=O)N1CCC2(CC1)C(C#N)=C(N)Oc1n[nH]c(C)c12 | 22% | -4%
CCn1ncc([C@@H]2C[C@H]3CN(Cc4cccc(Cl)c4)C(=O)[C@]34CCCN24)c1C | ? | 13%
CCOCCCNC(=O)c1cc(Sc2nnc(C)s2)nc2ccccc12 | -2% | -3%
O=C(NCCN1CCN(c2ccccc2Cl)CC1)Nc1ccccc1 | -11% | -2%
CCCCn1c(N)c(N(CCOC)C(=O)CSc2nnc(-c3ccc(C(C)(C)C)cc3)n2N)c(=O)[nH]c1=O | -17% | 0%
COc1cccc(C(=O)N2CCN(C3CCN(Cc4ccccc4)CC3)CC2)c1OC | -14% | -3%
Cc1noc(C)c1COc1ccc(C(=O)OCC(=O)NC23CC4CC(CC(C4)C2)C3)cc1 | -107% | -4%
CCOC(=O)c1nsnc1NCCSC(=N)N | -20% | -2%
NC(=S)NC(=O)c1ccccc1 | -1% | -6%
CC(=O)c1cccc(NC(=O)CN2C(=O)NC(C)(C)C2=O)c1 | -2% | -3%
O=C(Nc1ccc(F)cc1)C1CCCN(S(=O)(=O)c2ccc3[nH]c(=O)ccc3c2)C1 (stereo unspecified) | ? | -4%
O=C(Cn1nc(Cc2cccnc2)c2ccccc2c1=O)NCc1ccc(F)cc1 | -16% | -5%
COc1cc(Cl)ccc1NC(=O)COc1ccccc1C(=O)NN | ? | -2%
Cc1cc(C(=O)CN2C(=O)NC3(CCCc4ccccc43)C2=O)c(C)n1Cc1cccs1 (stereo unspecified) | 16µM* | -9%
CCOc1ccccc1NC(=O)Nc1ccc2c(c1)OCO2 | ? | -2%
COc1cc(O)cc(/C=C/c2ccccc2)c1 | 12%&-10% | -7%
CN(C)c1ccc(NC(=O)CSc2nnc(-c3cccs3)n2Cc2ccco2)cc1 | -10% | -5%
COc1ccc(OCCCC(=O)OCC(=O)Nc2c(C)nn(-c3ccccc3)c2C)cc1 | 9% | -4%
COc1ccc(CN(C(=O)c2oc3ccccc3c2C)C2CCS(=O)(=O)C2)cc1OC (stereo unspecified) | ? | -2%
COc1cc(NC(=O)CN(C)S(=O)(=O)c2ccc(C)cc2)cc(OC)c1 | -16% | -10%
CCCCN(CC(=O)Nc1cccc(S(=O)(=O)N2CCCC2)c1)Cc1nc2ccccc2c(=O)[nH]1 | ? | -15%
CC(C)(C)NC(=O)C1CCN(S(=O)(=O)c2cccc(C(F)(F)F)c2)CC1 | -6% | -8%
Cc1cc(C)cc(N(CCC#N)C(=O)COC(=O)C2CCN(S(=O)(=O)c3ccc(C)c(C)c3)CC2)c1 | -2% | -6%
CCOc1ccc(-n2ccnc(SCC(=O)NC3CCCC3)c2=O)cc1 | -26% | -2%
CCN1CCN(C(=O)NS(=O)(=O)c2ccc(C)cc2)CC1 | 1% | 0%
CCN1CCSc2ccc(C(=O)NCc3cccc(F)c3)cc21 | ? | -21%&-9%
O=C(COC(=O)CC(c1ccccc1)c1ccccc1)Nc1cccc(F)c1 | 1% | -11%
COc1ccc(CNC(=O)C(C)NCc2ccccc2Cl)cc1 (stereo unspecified) | 3% | 0%
NC(=O)c1ccc(-n2nnnc2Oc2ccccc2C(=O)N2CCOCC2)cc1 | 2% | -3%
CCCc1nc2sc3c(c2c(=O)n1N)CCC3 | -13% | 2%
COc1ccc2c(c1OC)C(=O)N(c1ccccn1)C2 | 2% | -10%
C=CCn1c2ccccc2c2nnc(SCC(=O)O)nc21 | -1% | -12%
CCOC(=O)/C(=C/c1c[nH]c2ccccc12)NC(C)=O | -12% | -7%
C/C(CC(=O)Nc1cccc(Cl)c1Cl)=N\NC(=O)C(=O)NC1CCCCC1 | 4% | 0%
CCOC(=O)NC(=O)COC(=O)c1ccc(Sc2ncn[nH]2)c([N+](=O)[O-])c1 | 5% | -1%
Cc1ccc(N=Nc2c(O)n(CN3CCOCC3)c3ccccc23)cc1 | -9% | -8%
Cc1ccc(Cl)cc1NC(=O)C1C2CCC(O2)C1C(=O)O (stereo unspecified) | -10% | -4%
Cc1cc(NC(=O)CSCC(=O)N(C)Cc2cccc(Cl)c2)no1 | -22% | 0%
CN(C)C(=O)c1cn(-c2ccccc2)nc1-c1cccs1 | -1% | -7%
Clc1ccc2nc(-c3ccc(Cl)nc3)[nH]c2c1 | ? | -1%
Cc1csc2nc(NC(=O)c3ccccc3)sc(=O)c12 | -14% | -20%
CCOC(=O)C1=C(O)/C(=C/c2ccc(OCC(=O)O)c(OCC)c2)SC1=Nc1ccc(C)cc1 | -26% | -15%
O=C(CNC(=O)c1ccccc1Br)NNC(=O)c1cccs1 | -1% | 2%
O=C(O)C1C2C=CC(C2)C1C(=O)Nc1ccc2c(c1)OCCO2 (stereo unspecified) | -6% | 1%
Cc1cccc(NC(=O)c2ccc(COc3ccccc3)o2)n1 | -10% | -2%
CC1CCN(C(=O)CSc2nc3ccccc3c(=O)[nH]2)CC1 | 5% | -13%
Cc1cccc(C)c1-n1ncc(C(=O)NCCN2CCN(C)CC2)c1C1CCN(C(=O)OC(C)(C)C)CC1 | ? | 7%
CCOC(=O)c1ccccc1NC(=O)COC(=O)C1=COCCO1 | -8% | 1%
Cc1ccc(C(=O)NCc2ccncc2)cc1S(=O)(=O)N1CCCCC1 | ? | -12%
O=C(COC(=O)c1cc([N+](=O)[O-])ccc1NCCO)NCc1cccs1 | 20% | -7%
COc1ccc(CNC(=O)CN2C(=O)COc3ccc(S(=O)(=O)NC4CCCC4)cc32)cc1 | -1%&-21% | -7%&-5%
N#Cc1ccsc1NC(=O)C1=COCCO1 | 8% | -10%
CCN(CC)S(=O)(=O)c1ccc(Cl)c(C(=O)NCCN2CCOCC2)c1 | 10% | -4%
CCn1c(SCC(=O)Nc2nccs2)nnc1-c1cc2cccc(OC)c2o1 | 3% | 2%
CC1CC(c2ccccc2)n2nc(N3C(=O)c4ccccc4C3=O)nc2N1 (stereo unspecified) | -1% | -4%
CCSC1=C(C#N)C2(CCCCC2)C2=C(CC(C)(C)CC2=O)N1 | 6% | -4%
COc1ccc(NC(=O)C2=C(C)NC(=O)NC2c2ccccc2[N+](=O)[O-])cc1 (stereo unspecified) | 12% | ?
CC(=O)c1cccc(NC(=O)Cn2cnc(S(=O)(=O)N3CCc4ccccc43)c2)c1 | -27% | -1%
CCc1ccc(/C=C2\Oc3c(ccc(O)c3CN3CCN(C)CC3)C2=O)cc1 | -25% | -20%
The list goes on.
SMILES | DT40 TDP1 CPT | GCN5L2 inh
CN(c1ccccc1C(=O)NCc1ccccc1Cl)S(=O)(=O)c1ccccc1 | ? | -5%
Cc1n[nH]c(=O)nc1NC(C)c1ccccc1 (stereo unspecified) | -3% | -3%
NC(=O)c1cc(S(=O)(=O)Nc2cccc(Cl)c2)cs1 | -12% | 1%
COc1ccc(NC(=O)C2CCN(S(=O)(=O)c3c(C)noc3C)CC2)cc1Cl | -9% | -16%
Cc1c(Br)c([N+](=O)[O-])nn1CC(=O)NCC1CCCO1 (stereo unspecified) | 10% | -2%
Cn1cccc1C(=O)OCC(=O)Nc1ccc2c(c1)OCCO2 | 1% | -2%
COc1ccc(Nc2ncnc3c2cnn3-c2cc(Cl)ccc2C)cc1OC | 21µM* | 1%
O=C(NC(=S)Nc1sc2c(c1C(=O)O)CCCC2)c1ccccc1 | -3% | 2%
COc1ccc(CNS(=O)(=O)c2ccc3c(c2)CCN3C(=O)C2CC2)cc1 | ? | 0%
Cc1[nH]nc(N=CC2=C(O)CC(c3ccco3)CC2=O)c1-c1ccc(Cl)cc1 (stereo unspecified) | ? | -5%
Cc1nnc(-c2cnn(-c3ccccc3)c2N)n1Cc1cccc(C(F)(F)F)c1 | -25% | -2%
CCOC(=O)NC(Nc1sc2c(c1C(N)=O)CCCC2)(C(=O)OCC)C(F)(F)F (stereo unspecified) | -22% | -2%
Cc1cccc(NC(=O)N2CCC(NC(=O)c3ccccc3C)CC2)c1 | ? | -2%
CC1CCN(C(=O)Cn2cc(C(=O)C3CC3)c3ccccc32)CC1 | -8% | -2%
Cc1cccc(C)c1NC(=O)CN1C(=O)c2ccccc2Sc2ncccc21 | ? | -1%
O=C(NCC1COc2ccccc2O1)c1cccc(S(=O)(=O)NCc2ccccc2)c1 (stereo unspecified) | ? | -16%
CC1CCCC(NC(=O)CC2Nc3ccccc3NC2=O)C1C (stereo unspecified) | ? | -4%
COc1cc(NC(=O)CCn2c(=O)[nH]c3ccsc3c2=O)cc(OC)c1 | ? | 3%
Fc1ccccc1CNCc1ccc2c(c1)OCO2 | -15% | 1%
Cc1ccccc1S(=O)(=O)Cc1ccc(C(=O)NC2CCC(C)CC2)o1 (stereo unspecified) | ? | -6%&-2%
CCCn1c(=O)[nH]c(=O)c2c1nc(-c1ccc(OC)c(Br)c1)n2CCOC | 1% | -8%
COc1nc(NCCC2=CCCCC2)nc(OC)n1 | -23% | 2%
CCNc1nnc(CSc2nc3ccccc3s2)s1 | -27% | -7%
Cc1cc2ncn(CC(O)COC3CCCCC3)c2cc1C (stereo unspecified) | ? | -4%
O=C(N1CCOCC1)C(F)(F)C(=O)N1CCOCC1 | 0% | -13%
COC(=O)c1[nH]c2ccc(F)cc2c1NC(=O)C1=COCCO1 | 4% | -7%
O=C(COC(=O)c1cccc(OC(F)F)c1)NC1CCCC1 | 14% | -1%
Cc1ccc(CNC(=O)c2ccc(N3CCCC3)c(NC(=O)Nc3ccc(C)cc3)c2)cc1 | 15µM* | 26%
COc1ccc(C2=NOC3(CC(=O)N(c4ccc(C)cc4)C3=O)C2)c(OC)c1 (stereo unspecified) | -10% | -5%
CCOC(=O)C1=NN(c2ccccc2)C(c2ccccc2)CC1=O (stereo unspecified) | 10% | -5%
CCC(C)c1ccccc1N=Cc1ccc2c(c1)OCO2 (stereo unspecified) | ? | 0%
c1ccc(SCCN2CCc3ccccc3C2)cc1 | ? | -1%
